# UUG fidelity – modulators of yeast start codon fidelity, primary screen, whole organism, S. cerevisiae, single point, plate reader; S. cerevisiae UUG-firefly luciferase reporter, luminescence/redox ratio; activity score, % at 18.7 µM; actives 0.13% (n = 350,000); AID 602363, 2012;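 active = replicate mean at a twofold rise or more, about +100% in these data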;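 note: firefly luciferase made from a UUG start codon reports start codon fidelity; reporter light over untreated wells divided by growth signal over untreated wells; some hits fall short of that in this replicate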
# Env fusion inh – inhibitors of HIV-1 Env-driven cell-cell fusion, primary screen, HeLa-JRFL effector, CEM21 target cells, luciferase; actives 1.1% (n = 360,000); AID 651610, 2012; inhibition, % at 12.3 µM;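 active = mean replicate inhibition score of at least 50 and every replicate individually at or above 50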;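 note: 0% = plate neutral controls and 100% = maraviroc near 300 nM; one replicate is shown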
# MT1-MMP act inh – blockers of MT1-MMP proenzyme processing, primary screen, HT1080 RFP-PRO-GFP cells, GFP/RFP fluorescence | GFP/RFP ratio change, % at 20 µM | GFP/RFP ratio fluorescence, overnight; percent of plate control window, DMSO zero | actives 0.061% (n = 360,000);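 active = GFP/RFP ratio change of at least 30% with cell ATP level not reduced by more than half and red fluorescence within 50% of control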; note: strong numbers were not always called active
#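 Material: RFP-PRO-GFP reporter HT1080 cells. Dosing: single-point 20 µM compound, 1% DMSO. Controls: DMSO and RFP-L50D-GFP cell wells. Timing: cells overnight before dosing, compound overnight, 37 °C, 5% CO2. Measure: GFP/RFP fluorescence ratio.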
# PABP polyA inh – PABP poly(A) RNA binding inhibitors, primary screen, biochemical, fluorescence polarization, uHTS; Polyadenylate-binding protein 1 (Homo sapiens), P11940; inhibition, % at 35 µM; actives 1% (n = 290,000);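 active = 50% or more with normal probe brightness, or confirmed in later tests; about a fifth of its hits are not listed in these tables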;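 note: calls also rest on retests at 20 µM and on dose response follow-up; controls were probe without protein and protein plus probe with vehicle; some compounds called inactive have numbers as strong as hits; many hits fall short of the cut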
# eIF4H inh – human eIF4H binding inhibitors, primary screen, translation initiation inhibitor project, biochemical, uHTS, fluorescence polarization | Eukaryotic translation initiation factor 4H (Homo sapiens), Q15056 | actives 0.94% (n = 290,000) | AID 2012, 2009 | inhibition, % at 35 µM | eIF4H fluorescence polarization binding assay;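 active = 50% or more with normal probe brightness, or confirmed in later tests; about a fifth of its hits are not listed in these tables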;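 note: calls also rest on retests at 20 µM and on dose response follow-up; 0% = protein and probe with vehicle and 100% = probe without protein; strong numbers were not always called active; many hits fall short of the cut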
# Rce1 inhib – yeast Rce1p protease inhibitors, primary screen, biochemical, fluorescence, cell-free homogeneous; CAAX prenyl protease 2 (Saccharomyces cerevisiae (strain ATCC 204508 / S288c)), Q03530; yeast membranes, quenched prenylated peptide cleavage fluorescence; calls only; actives 0.27% (n = 290,000);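 active = fall in fluorescence gain of 50% or more versus controls, with final raw signal at or below 3038400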;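 note: plate controls were neutral control wells for no effect and wells lacking membranes for full effect; tested at 10 µM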
# Target sequence (Q03530 whole entry, looked up): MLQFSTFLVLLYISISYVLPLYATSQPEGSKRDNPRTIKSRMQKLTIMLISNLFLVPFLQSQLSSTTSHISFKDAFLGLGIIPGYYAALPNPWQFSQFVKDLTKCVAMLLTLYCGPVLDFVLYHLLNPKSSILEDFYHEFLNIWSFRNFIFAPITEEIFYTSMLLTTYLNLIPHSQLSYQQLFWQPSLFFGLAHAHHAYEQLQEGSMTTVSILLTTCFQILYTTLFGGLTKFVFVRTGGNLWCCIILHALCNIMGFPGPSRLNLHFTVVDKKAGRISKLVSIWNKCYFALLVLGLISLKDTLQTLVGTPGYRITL
# CSC inhib – cancer stem cell viability inhibitors, primary screen, luminescence; actives 1.1% (n = 300,000); inhibition, % at 7.5 µM; cancer stem cell-like cells viability;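 active = mean at 75% or more and at least half the replicates too; tested in HMLE shEcad cells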;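 note: 0% = median of negative and 100% = median of positive control wells; the first replicate is given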
# eIF4H inh retest – also measured in eIF4H inh; calls as there; inhibition, %; compound at 20 µM; confirmation average;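 mean of two retest wells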
# PABP polyA inh retest – recorded beside PABP polyA inh, whose call it bears; inhibition, %; compound at 20 µM; confirmation repeats;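 mean of two retest wells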
# MT1-MMP act inh RFP – also measured in MT1-MMP act inh; calls as there; RFP signal change, %; measured here: RFP expression control read;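 0 = vehicle wells; hits needed this value within 50% of zero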
# * hit, by the source's call; i = inactive; / = not tested or not shown; + = active, no number.
# Preview (17 entries):
SMILES,UUG fidelity,Env fusion inh,MT1-MMP act inh,MT1-MMP act inh RFP,PABP polyA inh,eIF4H inh,Rce1 inhib,CSC inhib,others
COc1ccc(C(CNC(=O)c2cccc(S(=O)(=O)N3CCCCC3)c2)N2CCCC2)cc1 (stereo unspecified),4,0,3,3,/,/,/,-10,
CSc1ccccc1C(=O)Nc1ncc(C)s1,/,/,0,1,-6,-4,i,-2,
OC(c1ccc(-c2ccccc2)cc1)c1ncc(-c2ccccc2F)[nH]1 (stereo unspecified),-23,3,1,4,/,/,/,/,
O=C(CSc1nc(O)c(Cc2ccccc2)c(=O)[nH]1)c1ccccc1,-8,-1,6,1,5,5,i,-7,
Cc1ccc(SCCNC(=O)/C=C/c2ccc([N+](=O)[O-])cc2)cc1,/,-3,2,2,-6,-5,i,/,
CC(C)Cc1cc(C(=O)Nc2ccc(F)cc2F)no1,-4,-75,-1,3,-4,1,i,-3,
O=C(c1ccc(CS(=O)c2cccc(Cl)c2)o1)N1CCN(C2CCCCC2)CC1 (stereo unspecified),-10,12,-1,0,4,15,i,-15,
NC(=O)c1cc(Cl)ccc1OCC(=O)Nc1ccc2c(c1)OCO2,3,-126,8,3,/,/,/,/,
CCN1CCN(CCCNC(=O)CS(=O)(=O)Cc2nc(-c3cccc(OC)c3)oc2C)CC1,/,-2,-5,0,-5,2,i,-9,
COc1ccccc1C(=O)NCCSCc1ccccc1Cl,-15,5,4,-2,-6,-5,i,-4,
Cc1ccccc1OCc1nnc(SCCN2CCCC2)n1-c1ccccc1,/,17,0,4,-4,-5,i,1,
COc1cc(CN2c3ccccc3C(=O)CS2(=O)=O)cc(OC)c1,-14,-24,3,3,/,/,/,/,
Cc1cccc(C(=O)N/N=C2\CS(=O)(=O)N(C)c3ccsc32)c1,-27,-1,3,1,-1,12,i,12,
CCOc1ccccc1OCCCC(=O)N1CCN(S(=O)(=O)c2cccc(F)c2)CC1,-11,-23,-4,-2,0,-1,i,-1,
N#Cc1c(N2CCN(C(=O)c3ccccc3)CC2)nc(-c2ccccc2)c2c1CCCC2,/,/,-24,-21,-4,-12,+,72,
CC(C)c1cccc(-c2ccc3c(c2)S(=O)(=O)c2cccc(C(=O)NC4CCCC4)c2C3=O)c1,25,/,-1,3,/,/,/,22,
C[C@H](NC(=O)N1CCn2c1nc1ccccc12)C(=O)NC1CCCCC1,-3,3,5,5,7,-1,i,-11,

# The list itself, repeating the preview:
SMILES,UUG fidelity,Env fusion inh,MT1-MMP act inh,MT1-MMP act inh RFP,PABP polyA inh,eIF4H inh,Rce1 inhib,CSC inhib,others
COc1ccc(C(CNC(=O)c2cccc(S(=O)(=O)N3CCCCC3)c2)N2CCCC2)cc1 (stereo unspecified),4,0,3,3,/,/,/,-10,
CSc1ccccc1C(=O)Nc1ncc(C)s1,/,/,0,1,-6,-4,i,-2,
OC(c1ccc(-c2ccccc2)cc1)c1ncc(-c2ccccc2F)[nH]1 (stereo unspecified),-23,3,1,4,/,/,/,/,
O=C(CSc1nc(O)c(Cc2ccccc2)c(=O)[nH]1)c1ccccc1,-8,-1,6,1,5,5,i,-7,
Cc1ccc(SCCNC(=O)/C=C/c2ccc([N+](=O)[O-])cc2)cc1,/,-3,2,2,-6,-5,i,/,
CC(C)Cc1cc(C(=O)Nc2ccc(F)cc2F)no1,-4,-75,-1,3,-4,1,i,-3,
O=C(c1ccc(CS(=O)c2cccc(Cl)c2)o1)N1CCN(C2CCCCC2)CC1 (stereo unspecified),-10,12,-1,0,4,15,i,-15,
NC(=O)c1cc(Cl)ccc1OCC(=O)Nc1ccc2c(c1)OCO2,3,-126,8,3,/,/,/,/,
CCN1CCN(CCCNC(=O)CS(=O)(=O)Cc2nc(-c3cccc(OC)c3)oc2C)CC1,/,-2,-5,0,-5,2,i,-9,
COc1ccccc1C(=O)NCCSCc1ccccc1Cl,-15,5,4,-2,-6,-5,i,-4,
Cc1ccccc1OCc1nnc(SCCN2CCCC2)n1-c1ccccc1,/,17,0,4,-4,-5,i,1,
COc1cc(CN2c3ccccc3C(=O)CS2(=O)=O)cc(OC)c1,-14,-24,3,3,/,/,/,/,
Cc1cccc(C(=O)N/N=C2\CS(=O)(=O)N(C)c3ccsc32)c1,-27,-1,3,1,-1,12,i,12,
CCOc1ccccc1OCCCC(=O)N1CCN(S(=O)(=O)c2cccc(F)c2)CC1,-11,-23,-4,-2,0,-1,i,-1,
N#Cc1c(N2CCN(C(=O)c3ccccc3)CC2)nc(-c2ccccc2)c2c1CCCC2,/,/,-24,-21,-4,-12,+,72,
CC(C)c1cccc(-c2ccc3c(c2)S(=O)(=O)c2cccc(C(=O)NC4CCCC4)c2C3=O)c1,25,/,-1,3,/,/,/,22,
C[C@H](NC(=O)N1CCn2c1nc1ccccc12)C(=O)NC1CCCCC1,-3,3,5,5,7,-1,i,-11,
CCOC(=O)CC(NC(=O)CCS(=O)(=O)c1ccc2c(c1)n(C)c(=O)c(=O)n2C)c1ccc(C)cc1 (stereo unspecified),10,-8,2,2,-7,-11,i,-12,
CCN(CC(=O)Nc1ccc2c(c1)OCCO2)C(=O)COc1cc(C)ccc1Cl,8,5,-5,4,/,/,i,6,
N=c1c2c(-c3ccccc3)c(-c3ccccc3)oc2ncn1Cc1ccco1,-10,-3,-7,-11,-7,-4,i,25,
O=C(CSc1nc(-c2ccccc2Cl)ns1)c1ccc(Cl)cc1,/,-4,4,4,-2,-6,i,36,
Cc1cccc(C(=O)NCC(=O)NCCCSc2ccccc2)c1,-12,-3,0,-1,/,/,i,-12,
Clc1ccc(C2=NNC(=NCC3CCCO3)SC2)cc1 (stereo unspecified),-33,-67,-1,-1,-6,-12,i,2,
CCOC(=O)c1[nH]c2ccc(OC)cc2c1NC(=O)CCN1CCCC(C)C1 (stereo unspecified),-7,/,1,6,25,1,i,-14,
CCCCOC(=O)CCc1nc2ccccc2[nH]c1=O,-16,-51,0,5,11,3,i,-8,
CCOC(=O)N1CCN(C(=O)COC(=O)c2ccc(S(=O)(=O)N(CC)CC)cc2)CC1,-3,18,1,7,/,/,i,-10,
Cn1c(SCc2c(Cl)cccc2Cl)nc(C(F)(F)F)cc1=O,0,-40,-7,-6,-3,-15,i,7,
Cc1ccc(/C=N/NC(=O)CCn2nc(C)cc2C)c(C)c1,/,-30,-1,-2,4,3,i,12,
CCCCNC(=O)CCn1nc(-c2ccc(C)cc2)c2ccccc2c1=O,-7,7,-4,-3,11,-1,i,-2,
O=C(CSc1nnc(NC(=O)C2CCC2)s1)Nc1ccccc1,-21,8,-2,-6,4,-9,i,-13,
O=S1(=O)N(Cc2ccccc2F)CCCN1Cc1c(F)cccc1Cl,1,17,2,2,-10,-2,i,15,
O=C1c2ccccc2C(=O)c2c1oc(C(F)(F)F)c2C(=O)c1ccccc1,/,/,-3,-23,8,11,i,117*,
C=CCNC(=S)Nc1ccc(Cl)c(S(=O)(=O)N2CCOCC2)c1,/,-13,2,4,4,-3,i,/,
C=C(CC1([C@@H](NP(=O)(c2ccccc2)c2ccccc2)[C@H]2C[C@@H]2CCCC)CC1)c1ccccc1,-5,19,-31,-22,0,2,i,123*,
O=C(NC(=S)Nc1ccc(Cl)cn1)c1cccs1,-30,/,-1,1,4,-8,i,-4,
CC(C)NS(=O)(=O)c1ccc(OCC(=O)N(C)Cc2ccccc2)cc1,-19,-5,4,1,1,-2,i,12,
Clc1ccc(CSc2nnc(-c3cccnc3)n2Cc2ccco2)c(Cl)c1,-11,34,-24,3,-2,-14,i,86*,
CN(Cc1ccccc1)C(=O)CSc1nc2c(c(C(F)(F)F)n1)CCc1ccccc1-2,-13,-1,-2,-7,/,/,i,30,
COc1ccccc1NC(=O)C(C)NC(c1ccccc1)c1ccccc1 (stereo unspecified),-4,59*,-5,0,0,-6,i,-5,
Cc1ccc(NC(=S)NNC(=S)Nc2ccc(C)cc2)cc1,1,-1,6,3,/,/,/,/,
Cc1csc(SCc2ccccc2C(=O)O)n1,4,-51,-1,4,7,5,i,-1,
CCOc1cc(CNC)ccc1OCC(=O)NC(C)(C)C,/,22,-2,1,6,12,i,-3,
COc1ccc(NC(=O)CN(C)C(=O)c2ccccc2OCC(=O)Nc2cccc(C(F)(F)F)c2)cc1,-16,18,4,-10,/,/,i,-4,
O=C(CSCc1ccc([N+](=O)[O-])cc1)N/N=C/c1ccncc1,/,9,-3,1,5,-9,i,-11,
COc1ccc(OC)c(S(=O)(=O)ON2C(=O)c3ccccc3C2=O)c1,-1,-29,1,2,22,-6,i,-7,
O=C(NCC(=O)N(c1cccc(F)c1)C(C(=O)NCC1CCCO1)c1ccccc1)c1ccco1 (stereo unspecified),-7,4,-1,3,-2,-6,i,-18,
CC[N+](CC)(CC#Cc1ccccc1)CC#Cc1ccccc1,/,22,-3,-24,8,-1,i,5,
O=C(C=Cc1cccnc1)c1ccccc1,-8,27,0,-4,/,/,/,/,
C/C(=N\NC(=O)c1c([N+](=O)[O-])c(C)nn1C)c1ccc(NC(=O)C2CCCC2)cc1,-14,-151,13,-3,4,-7,/,-6,
CC(=O)N(C)c1ccc(N=Cc2cc3c(cc2[N+](=O)[O-])OCO3)cc1,/,3,2,7,/,/,i,20,
Cc1ccc2c(c1)NC(=O)c1cccnc1N2,-6,/,-4,-2,-8,-7,i,-1,
CS(=O)(=O)C1=NSC2=NC(=O)/C(=C\c3ccc(-c4ccccc4)o3)C(=N)N21,/,/,/,/,0,54*,/,13,eIF4H inh retest=68*;PABP polyA inh retest=36
COc1cccc(CN2CC(C(=O)N3CCSCC3)CCC2=O)c1 (stereo unspecified),-8,23,2,5,/,/,/,/,
O=C(N/N=C/c1ccc(Br)s1)c1ccncc1,/,-2,0,1,15,3,i,/,
C/C(N)=C(/C#N)C(=O)COC(=O)C1CCN(S(=O)(=O)c2cccs2)CC1,/,1,-1,1,/,/,/,-10,

# Gathered by group: those above with a cyano group (2)
SMILES,UUG fidelity,Env fusion inh,MT1-MMP act inh,MT1-MMP act inh RFP,PABP polyA inh,eIF4H inh,Rce1 inhib,CSC inhib,others
N#Cc1c(N2CCN(C(=O)c3ccccc3)CC2)nc(-c2ccccc2)c2c1CCCC2,/,/,-24,-21,-4,-12,+,72,
C/C(N)=C(/C#N)C(=O)COC(=O)C1CCN(S(=O)(=O)c2cccs2)CC1,/,1,-1,1,/,/,/,-10,

# Assay outcomes: PubChem, several laboratories

# Compounds as they come, and some 2.9% of all compounds hit somewhere here.
